Source: PubChem
CtBP-E1A blk: qHTS Assay for Inhibitors of the CtBP/E1A Interaction | activity change, % (test concentration not listed) | AlphaScreen GST-E1A/His-CtBP binding, 1536-well; stronger effect = lower value; control for the full effect not named in the record | CtBP / adenovirus E1A interaction (AlphaScreen) | 340,000 compounds, 0.49% hits; in the data active means activity change below about -65%; inconclusive means about -30% to -65%; inactive means above about -30%; note: % is set by controls: 0 for no effect and ±100 for the full control effect
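GST-E1A and His-tagged CtBP (125 nM each as 5X stock) were preincubated with pin-transferred compound for 2 h at 37 °C in the dark, then glutathione donor and nickel acceptor beads were added for 1 h before AlphaScreen reading.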
Six1-Eya2 blk: qHTS Assay for Inhibitors of the Six1/Eya2 Interaction; activity change, % (concentration not given with the values); Homeobox protein SIX1 (Homo sapiens) + Protein phosphatase EYA2 (Homo sapiens), …; AlphaScreen GST-Six1/His-Eya2 binding, biochemical; stronger effect = lower value; control for the full effect not named in the record; 360,000 compounds, 0.56% hits; in the data active = activity change below about -65%; inconclusive = about -30% to -65%; inactive = above about -30%; note: % is set by controls: 0 for no effect and ±100 for the full control effect
Target sequence (O00167 whole entry, looked up): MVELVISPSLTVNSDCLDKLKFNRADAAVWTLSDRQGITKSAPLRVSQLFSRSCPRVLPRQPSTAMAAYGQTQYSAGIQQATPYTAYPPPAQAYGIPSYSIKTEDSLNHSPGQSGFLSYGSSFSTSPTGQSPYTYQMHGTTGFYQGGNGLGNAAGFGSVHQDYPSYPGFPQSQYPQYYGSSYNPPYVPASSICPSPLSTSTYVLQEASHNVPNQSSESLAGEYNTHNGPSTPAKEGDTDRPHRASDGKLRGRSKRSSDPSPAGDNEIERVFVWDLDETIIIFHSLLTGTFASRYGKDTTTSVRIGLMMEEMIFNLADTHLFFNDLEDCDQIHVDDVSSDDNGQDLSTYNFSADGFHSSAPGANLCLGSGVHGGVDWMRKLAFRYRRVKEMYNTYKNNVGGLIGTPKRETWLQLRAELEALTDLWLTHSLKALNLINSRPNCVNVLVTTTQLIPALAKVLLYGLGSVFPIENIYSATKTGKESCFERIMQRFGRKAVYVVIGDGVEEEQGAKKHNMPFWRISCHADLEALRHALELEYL
Target sequence (Q15475 whole entry, looked up): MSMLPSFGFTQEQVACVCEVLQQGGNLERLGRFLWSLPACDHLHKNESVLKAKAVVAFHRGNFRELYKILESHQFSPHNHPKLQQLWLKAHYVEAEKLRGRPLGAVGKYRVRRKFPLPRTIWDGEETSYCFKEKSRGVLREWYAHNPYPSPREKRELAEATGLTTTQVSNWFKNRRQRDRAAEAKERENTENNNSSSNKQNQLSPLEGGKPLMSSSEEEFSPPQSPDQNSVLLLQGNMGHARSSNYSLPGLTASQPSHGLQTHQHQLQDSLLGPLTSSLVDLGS
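AlphaScreen luminescence read after one hour at 37 °C in darkness. Pin-transferred compounds met GST-Six1 and His-Eya2 protein (5X stock 250 nM/500 nM) plus glutathione donor and Ni-chelate acceptor beads (5X, 50 ug/mL).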
D2 ag: Beta-Arrestin HTS for Positive Allosteric Modulators of the Human D2 Dopamine Receptor: Agonists; 360,000 compounds, 0.084% hits; DiscoveRx PathHunter D2 beta-arrestin, luminescence, 90 min; 100% = 57 uM dopamine signal; D(2) dopamine receptor (Homo sapiens), P14416; activation, % (test concentration not listed); in the data active = activation above about 40%; inconclusive = about 15% to 40%; inactive = below about 15%; note: compound concentration not given in the record; the text of the record calls up to 30% inactive
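Agonist mode: compounds alone added to overnight-plated D2 PathHunter cells for 90 min at 37 C, with 57 uM final dopamine (EC100) defining full response. Beta-arrestin recruitment detected by chemiluminescent reagent, read after 1 h at ambient temperature.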
gsp antag: qHTS for Antagonists of gsp, the Etiologic Mutation Responsible for Fibrous Dysplasia/McCune-Albright Syndrome: qHTS; gsp-mutant cells, cAMP HTRF, 30 min; control for the full effect not named in the record; AID 624288, 2012; 340,000 compounds, 0.4% hits; Potency, µM (series often up to 76.9 µM), for the others: top-dose activity change, negative = inhibition, actives largely listed as inhibitors; active = falling curve of any shape with a large fitted effect; inconclusive = falling curve, mostly with a smaller effect; inactive = flat or rising curve; cell line not stated here;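 note: intracellular cAMP measured with PDE inhibitor Ro 20-1724 present during compound exposure; potency is the fitted concentration of half-maximal effect; % is set by controls: 0 for no effect and ±100 for the full control effect; nearly all actives have a fitted effect of over 65% in size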
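G418-selected cells were plated in DMEM/10% FBS for 16-24 h at 37C, then treated with compounds plus the PDE inhibitor […] (300 uM solution added) for 30 min at 37C. Intracellular cAMP was measured by HTRF after 30 min lysis at room temperature.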
gsp agonist: qHTS for Agonist of gsp, the Etiologic Mutation Responsible for Fibrous Dysplasia/McCune-Albright Syndrome: qHTS; gsp mutant cells, cAMP HTRF, 30 min; control for the full effect not named in the record; Potency, µM (series often up to 76.9 µM), inactives show top-dose activation (cAMP increase), most hits filed as activators; 340,000 compounds, 0.13% hits; active = well fitted activation curve with a large enough effect; inconclusive = small, poorly fitted or top-dose-only effect, or another doubt; inactive = no such curve, though single readings can be large or run the other way; cell line not stated here;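 note: phosphodiesterase inhibitor Ro 20-1724 added with compounds to block cAMP breakdown; potency is the fitted concentration of half-maximal effect; nearly all actives have a fitted effect of over 60% in size; about a fifth of the inactives were tested at one dose only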
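Cells stably selected in G418 were plated at 2000/well, grown 16-24 hr, then given compounds in DMSO with the PDE inhibitor […] (300 uM solution added) for 30 min at 37C; cAMP was read by HTRF.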
D2 PAM: Beta-Arrestin HTS for Positive Allosteric Modulators of the Human D2 Dopamine Receptor: Potentiators. D(2) dopamine receptor (Homo sapiens), P14416. 360,000 compounds, 0.23% hits. potentiation, % (concentration not given with the values). DiscoveRx D2 beta-arrestin cells, luminescence, 90 min; 100% = 57 uM dopamine signal; active = potentiation of 50% or more; inconclusive = 30% to 50%; inactive = 30% or less;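 note: tested on top of an EC20 dose of dopamine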
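PathHunter D2 cells, attached overnight at 37 deg C, received compound in DMSO plus dopamine at EC20 (50 nM final) for 90 min at 37 deg C. Beta-arrestin recruitment was read as luminescence after 1 h with detection reagent at ambient temperature.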
Starred values were filed as active, the others as inactive; u = inconclusive; x = no result given; & = joins results of further samples; [ ] = another dose, or the depositor's remark.

canonical_smiles	CtBP-E1A blk	Six1-Eya2 blk	D2 ag	gsp antag	gsp agonist	D2 PAM
COC(=O)c1sccc1NC(=O)CSc1ccccc1NS(=O)(=O)c1ccc(F)cc1	2	-2	-4.2	-28%	u	-11
CC12CC3CC1C(C(=O)O2)C3C(=O)O (configuration not stated)	0	14	2.3	4%	-5%	-3
CSCCC(NC(=O)OC(C)(C)C)C(=O)NC(CC(C)C)C(N)=O (configuration not stated)	1	-2	-2.4	1%	6%	-11
CCN(CC)S(=O)(=O)c1cccc(C(=O)NC(C(=O)NCCc2ccccn2)C(C)C)c1 (configuration not stated)	0	11	-1.1	13%	u	-2
FC(F)(F)C1=CC(c2ccc(Br)cc2)=NCCN1	2	0	-0.1	3%	u	-1
O=S1(=O)C=C(N2CCOCC2)c2ccccc21	-1	3	-1.6	-8%	6%	-3
CC1(C)Cc2c(C#N)c(NCc3ccco3)nc(-c3ccco3)c2CO1	8	-3	1.2	17%	9%	-19
Cc1onc(-c2ccccc2Cl)c1C(=O)N1CCCCCC1	6	3	-3.7	1%	8%[15.4 µM]	-5
COc1ccc(C(=O)COc2ccc3ccc(=O)oc3c2)cc1	3	-1	-1.7	-9%	36%	-11
CCN1C(=O)c2cccc3c(NC(=O)c4ccc(S(=O)(=O)N5CCOCC5)cc4)ccc1c23	-5	-13	-0.1	-19%	-18%	u
COc1ccccc1CCCNC(=O)C1CCC(=O)N(Cc2ccccc2F)C1 (configuration not stated)	x	11	-1.6	-14%	-15%	-7
CC1=C(C(=O)OCC2CCCO2)C(c2ccc(C)cc2)C2=C(CCCC2=O)N1 (configuration not stated)	-9	5	-3.9	15%	3%[15.4 µM]	1
O=C(N/N=C/c1ccc(Br)s1)c1cccnc1	-3	0	-0.6	3%	-27%	-4
CC(=O)c1ccc(OCc2cc(C(=O)N3CCC(c4ccncc4)CC3)no2)cc1	x	-1	3.6	-22%	-29%	-13
CCN1C(=O)CC(NNC(=O)c2ccc(Cl)cc2)C1=O (configuration not stated)	0	8	-2.3	7%	19%	-8
C/C(CC(=O)Nc1cccc2c1CCCC2)=N\NC=O	-2	6	-1.5	-4%	-1%[15.4 µM]	-2
O=C(COC(=O)Cc1c[nH]c2ccccc12)NC1CCCCC1	x	10	-2.5	-13%	-1%[15.4 µM]	0
CC[C@@H](C)[C@@H]1CN([C@@H](CN2CCC[C@H]2CN2C(N)=NC[C@H]2CC(C)C)C(C)C)C(=N)N1CCCC1CCCC1	-21	1	-1.9	-1%	x	x
O=c1c2sc3nc(N4CCOCC4)c4c(c3c2ncn1-c1ccccc1)CCCC4	-20	-17	-1.4	u	-1%[15.4 µM]	-12
O=C(CCl)NN1C(=O)NC(c2ccccc2)(c2ccccc2)C1=O	-15	-2	-3.4	x	7%[15.4 µM]	3

Later entries:
canonical_smiles | CtBP-E1A blk | Six1-Eya2 blk | D2 ag | gsp antag | gsp agonist | D2 PAM
COc1ccc(S(=O)(=O)Nc2ccc(O)c(Sc3ncn[nH]3)c2)cc1 | -5 | -1 | 2.4 | -1% | -56%[inhibitor] | u
O=C(O)CCCCCCCCCC(=O)c1cccs1 | 0 | -4 | -2.2 | -3% | 11% | -14
O=C(NC1CCCCCCC1)c1ccc(F)c(S(=O)(=O)N2CCOCC2)c1 | x | 5 | -2.0 | -20% | 23% | -5
CC(C)(C)c1ccc(OCC(=O)NNC(=O)Nc2ccccc2)cc1 | x | 0 | -3.1 | 8% | u | -2
O=C(CSCc1nc2ccccc2[nH]1)N1CCN(c2cccc(Cl)c2)CC1 | -21 | -14 | 2.7 | u | 11% | -14
COc1ccc2oc(C(=O)OCC(=O)Nc3ccc(OC)c(S(N)(=O)=O)c3)c(C)c2c1 | 0 | 20 | -4.0 | -12% | 5% | -23
Cc1ccc(N(Cc2cc3ccc(C)cc3[nH]c2=O)S(=O)(=O)c2ccccc2)c(C)c1 | 5 | 1 | 3.2 | -7% | -2% | 0
Cc1nc2ccc(C(=O)N(C)Cc3ccccc3)cn2c1N(C)C(=O)CCc1ccccc1 | -18 | 12 | -5.4 | x | x | -20
CC(=NCc1cccc(Cl)c1)c1nc(-c2ccco2)oc1O | -9 | -22 | 0.6 | 4% | 4% | -16
C/C(N)=C(/C#N)C(=O)CSc1n[nH]c(-c2ccccc2Br)n1 | -18&-3 | -15&-7 | -0.4&-3.3 | 1%&7% | -35%&15%[inhibitor] | -4&-16
COc1cccc(-c2nn(-c3ccccc3)cc2CO)c1 | 5 | 7 | 0.5 | -7% | 0% | -8
O=C(NCc1ccccc1)c1ccc2nccnc2c1 | 4 | 7 | 1.7 | 0% | 21% | 0
COc1cc(-c2noc(C)c2-c2ccc3[nH]ccc3c2)cc(OC)c1OC | x | 6 | -0.5 | 13% | -31%[inhibitor] | -9
Cc1ccc(C2C3=C(CC(C)(C)CC3=O)OC3=C2C(=O)CC(C)(C)C3)cc1 | 4 | -4 | -1.6 | 0% | 4%[15.4 µM] | -5
COCCNC(=O)C1CCCN(Cc2ccccc2)CC1 (configuration not stated) | -19 | 14 | -6.4 | x | x | 4
O=C1CN(c2ccc(Cl)cc2)C2(CCCCC2)S1 | -1 | -1 | -1.8 | 2% | -9% | -15

Structures above with a halogen:
canonical_smiles | CtBP-E1A blk | Six1-Eya2 blk | D2 ag | gsp antag | gsp agonist | D2 PAM
COC(=O)c1sccc1NC(=O)CSc1ccccc1NS(=O)(=O)c1ccc(F)cc1 | 2 | -2 | -4.2 | -28% | u | -11
FC(F)(F)C1=CC(c2ccc(Br)cc2)=NCCN1 | 2 | 0 | -0.1 | 3% | u | -1
Cc1onc(-c2ccccc2Cl)c1C(=O)N1CCCCCC1 | 6 | 3 | -3.7 | 1% | 8%[15.4 µM] | -5
COc1ccccc1CCCNC(=O)C1CCC(=O)N(Cc2ccccc2F)C1 (configuration not stated) | x | 11 | -1.6 | -14% | -15% | -7
O=C(N/N=C/c1ccc(Br)s1)c1cccnc1 | -3 | 0 | -0.6 | 3% | -27% | -4
CCN1C(=O)CC(NNC(=O)c2ccc(Cl)cc2)C1=O (configuration not stated) | 0 | 8 | -2.3 | 7% | 19% | -8
O=C(CCl)NN1C(=O)NC(c2ccccc2)(c2ccccc2)C1=O | -15 | -2 | -3.4 | x | 7%[15.4 µM] | 3
O=C(NC1CCCCCCC1)c1ccc(F)c(S(=O)(=O)N2CCOCC2)c1 | x | 5 | -2.0 | -20% | 23% | -5
O=C(CSCc1nc2ccccc2[nH]1)N1CCN(c2cccc(Cl)c2)CC1 | -21 | -14 | 2.7 | u | 11% | -14
CC(=NCc1cccc(Cl)c1)c1nc(-c2ccco2)oc1O | -9 | -22 | 0.6 | 4% | 4% | -16
C/C(N)=C(/C#N)C(=O)CSc1n[nH]c(-c2ccccc2Br)n1 | -18&-3 | -15&-7 | -0.4&-3.3 | 1%&7% | -35%&15%[inhibitor] | -4&-16
O=C1CN(c2ccc(Cl)cc2)C2(CCCCC2)S1 | -1 | -1 | -1.8 | 2% | -9% | -15
